Screens: PubChem BioAssay, National Center for Advancing Translational Sciences (NCATS)
HSD17B inh: qHTS Assay for Inhibitors of HSD17B4, hydroxysteroid (17-beta) dehydrogenase 4; recombinant HSD17B10, NADH fluorescence kinetic; many of its hits are not listed in these tables; Potency, µM (doses to about 57.1 µM), inactives show at the highest dose activity change, negative = inhibition, usual class: inhibitors; hit rate 7.6% among 75,000; active = well fitted inhibition curve with a large enough effect; inconclusive = small, poorly fitted or top-dose-only effect; inactive = no such curve, though single readings can be large or run the other way;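 note: the protocol describes HADH2 (HSD17B10) and not the HSD17B4 of the title; nearly all actives have a fitted effect of over 70% in size; most hits overshoot -100% by far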
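20 nM HADH2, pH 9.0 Tris/Tween; cpd preinc 15 min RT; start w/ 1 mM NAD+ + 90 uM b-hydroxybutyryl-CoA; kinetic fluor ex360/em450 q30s x 4 min; delta last-first.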
Numbers without * were called inactive; i = inactive; ? = inconclusive; [ ] = remark or other dose. % is set by controls: 0 for no effect and ±100 for the full control effect; potency is the fitted concentration of half-maximal effect. Only part of the results is shown (hit frequency here may not be typical).

No.	compound	HSD17B inh
1	CCOc1cc(C(=O)NCCOC)cc(OCC)c1OCC	4%
2	COC(=O)c1cn(C(=O)c2ccc(Br)o2)c2ccccc12	6%
3	Cc1nc(N2CCCC2)c2nnn(Cc3ccccc3Cl)c2n1	0%
4	CN(C)C1NC(=O)c2cc(-c3ccccc3)sc2N1 (centres undefined)	-4%
5	COc1ccc(O)c(C(=O)CC(=O)c2ccc(F)cc2)c1	i
6	CCOCc1nnc(NC(=O)CCc2ccccc2)s1	1%
7	CC(C)(N=NC(C)(C)C(=N)N)C(=N)N	-6%[11.4 µM]
8	Cc1nc(C)c(C(=O)C2=C(O)C(=O)N(CCCn3ccnc3)C2c2ccc(Cl)cc2)s1 (centres undefined)	-26%
9	CCCc1cc(=O)[nH]c(SCC(=O)N(CC)Cc2ccccc2)n1	-6%
10	CN(C)Cc1ccccc1-c1nc(NC2CCNCC2)c2ccccc2n1	15%
11	CCOc1ccccc1Nc1nnc(SCC(=O)N2CCCC2)s1	3%
12	CC(C)NC(=O)[C@H]1C[C@@H]1[C@H](NC(=O)OCc1ccccc1)c1ccccc1	12%
13	CC(C)(C)NC(=O)COC(=O)c1ccc(O)cc1	10%
14	CCC(=O)N1CCN(c2ccccc2NC(=O)COc2cccc(C)c2)CC1	-2%
15	CC1CN(C(=O)CN2C(=O)NC(C)(c3ccccc3)C2=O)CC(C)O1 (centres undefined)	7%

(list continues)
No.	compound	HSD17B inh
16	Oc1c(C(c2ccco2)N2CCC3(CC2)OCCO3)sc2ncnn12 (centres undefined)	9%
17	COc1ncc2nc(CCc3ccccc3)c(=O)n(C)c2n1	-7%
18	CC1CCN(CCC(=O)N2CCCc3c2c(=O)oc2ccc(O)cc32)CC1	-10%
19	COC(=O)C1=C(C)N(c2cc(Cl)cc(Cl)c2)C(=O)C1	11%
20	O=C1NC(c2ccc3c(c2)OCO3)Oc2ccccc21 (centres undefined)	?
21	c1ccc(-c2ccc(-n3ccnc3)cc2)cc1	3%
22	COC(=O)c1c(N)c(C#N)c(C)n1-c1ccccc1	10%
23	Cc1ccc(S(=O)(=O)Cc2cn3cccnc3n2)cc1	25µM*
24	COc1cc2c(c(OC)c1)C(c1cccc(OC)c1OC)CC(=O)N2 (centres undefined)	2%
25	CCC(C)(C)n1nnnc1C(c1cc2cc(C)cc(C)c2[nH]c1=O)N1CCCC1 (centres undefined)	20µM*
26	O=C(Nc1ccc2oc(-c3cccnc3)nc2c1)c1cc2ccccc2o1	0%
27	CCOc1nc(-c2ccc(C)cc2)ccc1-c1noc(-c2cccnc2)n1	7.9µM*
28	CC(=O)Nc1cccc(NC(=O)c2sc3ncn(CC(=O)N4CCCCC4)c(=O)c3c2C)c1	-1%
29	Cc1cc(C(=O)CSc2nnc(-c3ccccc3)n2Cc2ccc3c(c2)OCO3)c(C)n1C	-5%
30	N#CC1=C(N)N(c2ccccc2Sc2ccccc2)C(=O)C1	-13%

(cont.)
No.	compound	HSD17B inh
31	COc1ccc(-n2nc(C(=O)NCC(=O)N3CCN(c4ccccn4)CC3)c3ccccc3c2=O)cc1	18%
32	CCC(=O)N1c2ccccc2NC2=C(C(=O)CC(c3ccco3)C2)C1c1ccco1 (centres undefined)	-10%
33	CC1CCCN(C(=O)CN2CCN(C(=O)c3ccco3)CC2)C1 (centres undefined)	7%
34	CCOC(=O)c1ccc(NC(=O)CC2SC(=NC)N(C)C2=O)cc1 (centres undefined)	-6%
35	CCOC(=O)C1CCN(c2c(NCc3ccc(C(=O)NCCOC)cc3)c(=O)c2=O)CC1	0%
36	CC(=O)Nc1cc(OC(C)=O)c2nonc2c1OC(C)=O	14%
37	C[C@@H]1C=C[C@](Cc2ccccc2)(C(=O)NCC2CC2)N1C(=O)c1ccccc1	0%
38	CCOC(=O)C1=C(C)Nc2ncnn2C1/C=C/c1ccccc1 (centres undefined)	21%
39	CC(C)=CCC/C(C)=C/CO/N=C1/C[C@@H](O)[C@@H](O)[C@@H]2[C@@H]3C(=O)N([C@@H](C)c4ccccc4)C(=O)[C@H]3CC[C@@H]12	2%[11.4 µM]
40	O=S(=O)(NCC(c1cccnc1)N1CCN(c2ccccc2)CC1)c1cc(F)ccc1F (centres undefined)	0%
41	COc1ccc(-c2cc(C(F)(F)F)nc(SCC(=O)NCc3ccco3)n2)cc1OC	32µM*
42	COC(=O)c1[nH]c2c(c1C)C(=O)CC(c1cc(OC)ccc1OC)C2 (centres undefined)	4%
43	Cc1ccccc1CS(=O)(=O)Cc1ccc(C(=O)NCc2cccnc2)o1	13%
44	Cc1ccc(C(=O)NCc2ccc3c(c2)OCO3)cc1S(=O)(=O)N1CCOCC1	13%
45	Clc1ccc(OCCCc2nc(-c3cccnc3)no2)c(Cl)c1	-12%

Retrieved one by one from above (2):
No.	compound	HSD17B inh
44	Cc1ccc(C(=O)NCc2ccc3c(c2)OCO3)cc1S(=O)(=O)N1CCOCC1	13%
39	CC(C)=CCC/C(C)=C/CO/N=C1/C[C@@H](O)[C@@H](O)[C@@H]2[C@@H]3C(=O)N([C@@H](C)c4ccccc4)C(=O)[C@H]3CC[C@@H]12	2%[11.4 µM]

Other structures follow.
No.	compound	HSD17B inh
46	C=CCSc1nsc(N)n1	1%
47	CC1(C)Cc2c(c(N3CCOCC3)nc3sc(C(=O)N4CCCCC4)c(N)c23)CO1	20µM*
48	CNc1nc(-c2ccc(Cl)cc2)cs1	7%
49	CC(C)COc1ccc(/C(O)=C2/C(=O)C(=O)N(CCN(C)C)C2c2ccncc2)cc1 (centres undefined)	-2%
50	CC(CCc1ccccc1)NC(=O)c1nnc(Cc2ccc(F)cc2)o1 (centres undefined)	-6%
51	CC(=O)Oc1c(-c2ccccc2)oc2c(CC=C(C)C)c3c(c(OC(C)=O)c2c1=O)C=CC(C)(C)O3	-8%
52	COc1ccc(NC(=O)N2CC3(CCN(C(=O)c4cccn4C)CC3)C2)cc1	-4%
53	CCOC(=O)c1[nH]c(C)c(CN(CCc2ccccc2)S(C)(=O)=O)c1C	11%
54	CCOC(=O)c1cc2sc(C)cc2n1CC(=O)N1CCc2ccccc21	-1%
55	COc1ccc2c(c1)CC(C1(O)C(=O)Nc3ccccc31)C2=O (centres undefined)	7%
56	COc1ccc(Cl)c(Cn2c(NCc3ccco3)nc3c2c(=O)n(C)c(=O)n3C)c1	-12%
57	Cc1cc(C(=O)N2CCN(C(=O)C3CCCO3)CC2)no1 (centres undefined)	10%
58	Cc1c(C(=O)OC2CCCCC2)[nH]c2c1C(=O)CC(C)(C)C2	8%
59	CSc1nc2ccc(S(=O)(=O)NC3CCCCC3)cc2s1	-9%
60	CC(=O)OC(C(=O)n1nc(C)cc1C)c1ccccc1 (centres undefined)	9%

Arranged by count of non-hydrogen atoms (falling): twelve of the compounds above.
No.	compound	HSD17B inh
51	CC(=O)Oc1c(-c2ccccc2)oc2c(CC=C(C)C)c3c(c(OC(C)=O)c2c1=O)C=CC(C)(C)O3	-8%
49	CC(C)COc1ccc(/C(O)=C2/C(=O)C(=O)N(CCN(C)C)C2c2ccncc2)cc1 (centres undefined)	-2%
47	CC1(C)Cc2c(c(N3CCOCC3)nc3sc(C(=O)N4CCCCC4)c(N)c23)CO1	20µM*
44	Cc1ccc(C(=O)NCc2ccc3c(c2)OCO3)cc1S(=O)(=O)N1CCOCC1	13%
52	COc1ccc(NC(=O)N2CC3(CCN(C(=O)c4cccn4C)CC3)C2)cc1	-4%
50	CC(CCc1ccccc1)NC(=O)c1nnc(Cc2ccc(F)cc2)o1 (centres undefined)	-6%
45	Clc1ccc(OCCCc2nc(-c3cccnc3)no2)c(Cl)c1	-12%
58	Cc1c(C(=O)OC2CCCCC2)[nH]c2c1C(=O)CC(C)(C)C2	8%
57	Cc1cc(C(=O)N2CCN(C(=O)C3CCCO3)CC2)no1 (centres undefined)	10%
60	CC(=O)OC(C(=O)n1nc(C)cc1C)c1ccccc1 (centres undefined)	9%
48	CNc1nc(-c2ccc(Cl)cc2)cs1	7%
46	C=CCSc1nsc(N)n1	1%

Following part:
No.	compound	HSD17B inh
61	CC(=O)CCc1ccc(OC(=O)c2cccnc2)cc1	-2%
62	c1ccc(-c2cnnc(N3CCCCC3)n2)cc1	2%
63	Nc1nc2c(ncn2C2OC(CO)CC2O)c(=O)[nH]1 (centres undefined)	1%
64	Cn1c(SCC(=O)NCC2CCCO2)nnc1-c1ccc(S(=O)(=O)N2CCCC2)cc1 (centres undefined)	-11%
65	COC(=O)c1cccc(S(=O)(=O)N2CCC(C)CC2)c1	0%
66	OC[C@H]1O[C@@H](n2cnc3c(NCc4ccccc4)ncnc32)[C@H](O)[C@@H]1O	17%
67	Cc1noc(C)c1-c1nccc(NCc2cccnc2)n1	-6%
68	CC1(C)CC(=O)C(C=NCc2cccnc2)=C(O)C1	-1%
69	CCOC(=O)C(CCCOc1cccc(OC)c1)C(=O)OCC	1%
70	CCOC(=O)C1CCN(S(=O)(=O)Cc2ccccc2)CC1	8%
71	COC(=O)c1ccc(C(NC(=O)OCc2ccccc2)/C(F)=C/[C@@H](C)C(=O)NCCc2c[nH]c3ccc(OC)cc23)cc1 (some centres undefined)	5%
72	Clc1ccc2nc(N3CCCCC3)sc2c1	1%
73	N#Cc1ccccc1NC(=O)CSc1nnc(-c2ccccc2)n1-c1ccccc1	-21%
74	CC[C@H]1C2=C3C(CC[C@H]4C(OCc5ccc(F)cc5C(F)(F)F)OC[C@](C)([C@@H]34)N(C(=O)OC(C)(C)C)C2)C(COC)C1COC (some centres undefined)	15%
75	Cc1ccccc1OCC(=O)OC(C)CN1CCN(C)CC1 (centres undefined)	-1%

Continuation:
No.	compound	HSD17B inh
76	COc1ccc(CNc2ccnc(-c3ccccc3OC)n2)c(OC)c1	1%
77	c1ccc(Cn2nnnc2C(c2cccs2)N2CCc3ccccc3C2)cc1 (centres undefined)	1%
78	COC(=O)c1ccc(S(=O)(=O)N2C3CCC2CC(NC(=O)NC2CCCCC2)C3)cc1 (centres undefined)	7%
79	Cc1cccc(C(=O)O)c1	-1%
80	O=C(c1ccc(S(=O)(=O)N2CCOCC2)cc1)N1CCc2ccccc2C1	?
81	O=C(O)CCCC(=O)NCc1ccccn1	10%
82	CC(C(=O)O)C1CCC2C3CC=C4CC(O)CC[C@@]4(C)C3CC[C@]12C (some centres undefined)	0%
83	COc1cc2c(cc1OC)C(C(=O)NCCN1CCOCC1)C1c3ccccc3CCN1C2=O (centres undefined)	-1%
84	CC(=O)Nc1c(C(=O)N2CCN(c3ncccn3)CC2)cnn1-c1ccccc1Cl	16%
85	CC1CN(C(=O)CSc2nnc(-c3ccncc3)n2-c2ccccc2)CC(C)O1 (centres undefined)	-1%
86	O=C(Nc1ccc(CN2CCOCC2)cc1)c1cccc(F)c1	10%
87	CC(=O)N1CCc2cc(S(=O)(=O)NC3CCCc4ccccc43)ccc21 (centres undefined)	0%
88	COC(=O)c1ccc(C23CC4(C2)[C@H](CN(CC2CCCCC2)[C@@H]4c2ccccc2)C3c2ccc(C(F)(F)F)cc2)cc1 (some centres undefined)	-4%
89	O=C(c1ccccc1)N1CCN(C(=O)c2ccccc2Br)CC1	7%
90	COC(=O)Cn1c(C(=O)N(C)C)cc2c1C[C@H]1CN(C(=O)c3ccccc3)[C@@](Cc3ccc(F)cc3)(C(=O)OC)[C@@H]21	4%

Continued:
No.	compound	HSD17B inh
91	CCN(CC)S(=O)(=O)c1cccc(-c2nnc(SCC(N)=O)n2CCc2ccccc2)c1	-2%
92	Cc1ccc(S(=O)(=O)CC(=O)N2CCCC2)cc1	0%
93	CC1(C)Cc2c(sc3c2c(=N)n(Cc2ccco2)c(=O)n3Cc2ccc(Cl)cc2)CO1	-13%
94	O=C(Nc1ccc(O)cc1)c1ccc(C(=O)c2ccccc2)o1	-11%
95	CCOC(=O)N1CCN(C(=O)Cn2c(=O)sc3ccccc32)CC1	9%
96	CCC1(CC)C(=O)NC(=O)NC1=NCCc1ccc(O)cc1	1%
97	CCn1cc(Br)c(C(=O)Nc2cccc(Cl)c2)n1	0%
98	COc1ccc2[nH]c(O)c(NC(C)=O)c2c1	?
99	Cc1ccc(-c2nnn(CC(=O)N3CCN(c4ccccc4)CC3)n2)o1	4%
100	O=C(CSc1nnnn1-c1ccccc1)NC(=O)Nc1ccc2c(c1)OCCO2	8%
101	c1ccc(C2[C@H]3CN(Cc4cccnc4)[C@H](c4ccccc4)C34CC2(c2ccccc2)C4)cc1 (some centres undefined)	11%
102	COc1cc(NC(=O)C2CCCCN2)ccc1OCC(C)C (centres undefined)	7%
103	COc1ccc(NS(=O)(=O)c2cc(OC)ccc2NC(=O)c2cc(C)oc2C)cc1	-3%
104	Cc1cc(NC(=O)CCC(=O)N(CCC(C)C)C(C(=O)NC2CCCC2)c2cccnc2)no1 (centres undefined)	7%
105	COc1nnc(-c2ccc(C)c(S(=O)(=O)NCCO)c2)c2ccccc12	4%

Following part.
No.	compound	HSD17B inh
106	CCC(C(=O)C(C)C(O)C(C)CCc1ccc(C)c(O)c1C(=O)O)C1OC(CC)(C2CC[C@@](O)(CC)C(C)O2)CC1C (some centres undefined)	4%
107	CC(C)(C)NS(=O)(=O)c1ccc(NS(=O)(=O)c2ccc(F)cc2)cc1	1%
108	COc1cccc(CN2C(=O)CCC2(C)C(=O)NC2CCCCCC2)c1 (centres undefined)	3%
109	COc1ccc(CCNC(=O)C2CCN(S(=O)(=O)N3CCOCC3)CC2)cc1OC	8%
110	O=C(Nc1ccccc1N1CCOCC1)c1ccc(Br)o1	-4%
111	O=C(CSc1nnc(CNc2ccc(Cl)cc2)o1)Nc1nc2ccccc2s1	1%
112	CC(=O)N(c1ccc(Br)cc1)C1C=CS(=O)(=O)C1 (centres undefined)	-4%
113	O=c1cc(O)n(-c2ccccc2F)c(=S)[nH]1	?
114	O=S(=O)(NCc1ccccn1)c1ccc(Br)s1	3%
115	Clc1ccc(CSC2=NCCN2)cc1Cl	7%[11.4 µM]
116	O=C(NCc1ccc(N2CCCC2=O)cc1)c1cn(Cc2ccccc2)nn1	0%
